# Bioassay records as filed in PubChem.
# Bead autofluor: compound fluorescence in toxin protease inhibitor counterscreen; 360,000 tested, 3.1% active; fluorescence intensity (concentration not given with the values); compound autofluorescence counterscreen, microsphere flow cytometry; stronger effect = higher value;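 active = at least 3 SD above the mean of all compounds, about 16000 in these data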;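 note: 100 nL of 1 mM stock went into each well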
# PrP UTR inh: inhibition of PrP 5' UTR reporter expression; cell-based PrP 5' UTR mRNA reporter, plate reader; AID 488862; inhibition, % (test concentration not listed); 340,000 tested, 0.35% active;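 active = every replicate at 50% or more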;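 note: 0 = median of the neutral control wells; tested in H4 reporter cells; numbers are from one replicate; inactives centre near -14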
# Starred values were filed as active, the others as inactive. A portion of the library; the hit share may differ from the screen's.
Compound	Bead autofluor	PrP UTR inh
Cc1cn(CC(=O)NCC(c2ccccc2)c2ccccc2)c(=O)[nH]c1=O	3833	-3.7
Cc1ccccc1NP1(=O)OCCCN1Cc1ccccc1Cl (stereo unspecified)	3805	26.2
CCN1CCC(O)(/C=C/c2ccc(C(C)C)cc2)C(C(=O)/C=C/c2ccc(C(C)C)cc2)C1 (stereo unspecified)	3263	-67.0
CCOC(=O)[C@H]1[C@H]2COc3ccccc3[C@@H]2N2C(=O)c3ccc(Cl)cc3NC(=O)[C@@]12C	3700	-5.5
CCOCC(=O)NC1CCc2cc(OC)c(OC)c(OC)c2-c2ccc(SC)c(=O)cc21 (stereo unspecified)	2784	48.9
NC(=O)c1ccsc1NC(=O)c1cc(=O)c2ccccc2o1	4847	-95.4
COC(=O)C1=C(c2ccc(OC)c(OC)c2)C[C@@H]2CC[C@H]1N2C(=O)NCCOc1ccccc1Cl	3672	-24.6
COC(=O)C1=C(c2ccc(C(C)=O)cc2)C[C@@H]2CC[C@H]1N2C(=O)N1CCC(C)CC1	2925	-6.4
COc1ccc(Sc2ccc(-c3nc4cnccn4c3NC3CCCCC3)cc2OC)cc1	4907	-20.5
CCC(=O)c1ccc(OCc2cn(CC(=O)c3ccc(O)cc3)nn2)cc1	2926	-14.7

# The results go on:
Compound	Bead autofluor	PrP UTR inh
COc1ccc(CN(C)CCCn2cnc(C(=O)Nc3ccc(C)c(C)c3)n2)cc1OC	3139	-15.4
O=C(O)C1C2CCCCC2=C2CCCCC2C1C(=O)Nc1nccs1 (stereo unspecified)	2889	-24.4
O=C1C=C(c2cccc(Br)c2)C[C@@H](c2ccc(Cl)cc2)C1	4211	-8.4
CCCCc1ccc(CC(=O)Nc2cc(S(=O)(=O)N3CCOCC3)ccc2O)cc1	3802	-20.8
O=C1N[C@H](Cc2ccccc2)COC(=O)[C@H](Cc2ccc(F)cc2)C/C=C\C[C@@H]1CC(=O)N(CCO)Cc1ccccc1	3423	-4.7
COC(=O)c1ccc(OCC(=O)Nc2ccccc2C(=O)NC2CC2)cc1	3560	3.5
CC(C)(O)C#Cc1ccc(CNC[C@H]2O[C@@H](n3cnc(C(N)=O)n3)[C@H](O)[C@@H]2O)s1	3522	-3.3
O=C1[C@H](Cc2ccccc2)NCCCC[C@H](c2ccc(Cl)cc2)N1Cc1ccc(Cl)cc1	3587	-14.8
COC(=O)C1=C(c2ccc(OC)c(OC)c2)C[C@@H]2CC[C@H]1N2C(=O)NCCO	2957	-6.3
COC1=C[C@@H]2[C@@H]3Cc4ccc(OC)c(O)c4[C@]2(CCN3C)CC1=O	5909	-8.9

# (more compounds)
Compound	Bead autofluor	PrP UTR inh
Cc1ccc(NC(=O)CSc2nnc(C3CC3)n2C)cc1S(=O)(=O)N1CCCCC1	3726	-14.3
COc1ccc(CN2Cc3cccc4c3[C@@H](CC2=O)[C@H](O)[C@H](O)C4)cc1	3707	-3.4
C=C1C(=O)OC2C=C(CO)CCC=C(CO)CC(OC(=O)C(C)C)C12 (stereo unspecified)	4249	-7.9
NC(=O)C1(Nc2ccc(-c3ccc(Br)cc3)cc2)CCCC1	2776	49.8
O=c1cc(-c2ccccc2)oc2cc(O)ccc12	5681	-46.6
O=C(CCN1CC2CCC(CC2)C1)c1cccs1	4290	-46.7
CC(=NNC(=S)Nc1ccc(C)cc1)c1ccccn1	3063	4.7
C[C@H]1CN([C@@H](C)CO)C(=O)c2cccc(NC(=O)c3ccc(-c4nccs4)cc3)c2O[C@@H]1CN(C)C(=O)NC1CCCCC1	4414	-0.5
COc1ccc2c(c1)[C@H]1[C@H](CO2)[C@H](c2ccccc2)[C@]2(C)C(=O)Nc3ccc(F)cc3C(=O)N12	3902	-9.1
O=S(=O)(CCNC1CC1)NC1CCCCC1	3457	-10.5

# New compounds follow.
Compound	Bead autofluor	PrP UTR inh
COC(=O)C1=C(c2ccc(OC(F)(F)F)cc2)C[C@@H]2CC[C@H]1N2C(=O)N1CCCC1	3063	-2.5
CCOC(=O)[C@@H]1[C@H]2COc3cc(OC)ccc3[C@H]2N2C(=O)N(c3ccc(C(F)(F)F)cc3)C(=O)[C@]12C	2912	-2.8
O=C1N[C@@H](c2ccccc2)COC(=O)[C@@H](Cc2ccc(F)cc2)CC/C=C/C[C@H]1CC(=O)N(CCO)Cc1ccccc1	2946	-2.5
CC(C(=O)N1CCc2ccccc21)N1CCN(S(=O)(=O)c2ccc3c(c2)OCCCO3)CC1 (stereo unspecified)	3976	-22.6
O=C(/C=C/c1ccccc1)Nc1cccc(C(=O)NCCc2ccccc2)c1	3919	-70.0
CC(C)COc1cccc(-c2cc(C(=O)N/N=C/c3ccncc3)c3ccccc3n2)c1	5808	-1.5
C#CCOCCOCCOCCNc1nc(N2CCN(C(=O)[C@H]([C@@H](C)CC)n3cc(CCC(=O)O)nn3)CC2)nc(N2CCN(C(=O)[C@H](CCCCN)n3cc(CCCC)nn3)CC2)n1	4048	-6.0
OCCc1ccc(O)cc1	5164	-24.7
Cc1cc(C)c(C)c(C(=O)C(=O)c2ccccc2)c1	3586	-41.5
C[C@@H](NC(=O)c1[nH]cnc1C(=O)Nc1ccc(Cl)cc1)c1ccccc1	2933	-11.1

# 4 entries from above, as labelled records:
> C#CCOCCOCCOCCNc1nc(N2CCN(C(=O)[C@H]([C@@H](C)CC)n3cc(CCC(=O)O)nn3)CC2)nc(N2CCN(C(=O)[C@H](CCCCN)n3cc(CCCC)nn3)CC2)n1
  Bead autofluor: 4048
  PrP UTR inh: -6.0

> OCCc1ccc(O)cc1
  Bead autofluor: 5164
  PrP UTR inh: -24.7

> Cc1cc(C)c(C)c(C(=O)C(=O)c2ccccc2)c1
  Bead autofluor: 3586
  PrP UTR inh: -41.5

> C[C@@H](NC(=O)c1[nH]cnc1C(=O)Nc1ccc(Cl)cc1)c1ccccc1
  Bead autofluor: 2933
  PrP UTR inh: -11.1

# Reformatted: 4 of the compounds above.
C#CCOCCOCCOCCNc1nc(N2CCN(C(=O)[C@H]([C@@H](C)CC)n3cc(CCC(=O)O)nn3)CC2)nc(N2CCN(C(=O)[C@H](CCCCN)n3cc(CCCC)nn3)CC2)n1
  Bead autofluor: 4048
  PrP UTR inh: -6.0

OCCc1ccc(O)cc1
  Bead autofluor: 5164
  PrP UTR inh: -24.7

Cc1cc(C)c(C)c(C(=O)C(=O)c2ccccc2)c1
  Bead autofluor: 3586
  PrP UTR inh: -41.5

C[C@@H](NC(=O)c1[nH]cnc1C(=O)Nc1ccc(Cl)cc1)c1ccccc1
  Bead autofluor: 2933
  PrP UTR inh: -11.1

# Further structures follow.
Compound	Bead autofluor	PrP UTR inh
C[C@H]1COC(=O)[C@H](CC(=O)OC(C)(C)C)C/C=C\C[C@@H](CC(=O)N(CCO)Cc2ccccc2)C(=O)N1	2619	-19.0
Nc1c(C(=O)NCC2CCCO2)c2nc3ccccc3nc2n1/N=C/c1ccncc1 (stereo unspecified)	4652	-3.2
CCOC(=O)[C@H]1[C@H]2COc3ccc(Br)cc3[C@H]2N2C(=O)CN(Cc3ccc(C)cc3)C(=O)[C@@]12C	3131	-11.3
Cc1ccc(S(=O)(=O)Nc2c(C)cc([N+](=O)[O-])cc2C)cc1	2987	-11.0
O=C1C=C(Nc2cccnc2)c2ccccc2C1=O	2833	-68.8
C[C@H](NC(=O)c1[nH]cnc1C(=O)N[C@H](C)c1ccccc1)c1ccccc1	3941	-10.6
COc1ccc(NC(=O)Nc2cccc3c2O[C@H](CN(C)S(C)(=O)=O)[C@@H](C)CN([C@H](C)CO)C3=O)cc1	2954	-17.3
COC(=O)[C@H](Cc1ccccc1)N(Cc1ccccc1)S(=O)(=O)N(Cc1ccccc1)[C@@H](Cc1ccccc1)C(=O)OC	3784	1.7
O=C1C=C(c2cccc(Cl)c2)C[C@@H](c2ccc(Cl)cc2)C1	3036	-1.7
COc1ccc(CCNS(=O)(=O)c2ccc3c(c2)n(C)c(=O)c(=O)n3C)cc1OC	5635	-19.9

# Next entries
Compound	Bead autofluor	PrP UTR inh
COc1c(C)cccc1C(=O)NC(=S)Nc1ccc2c(c1)Cc1ccccc1-2	8377	-36.9
O=C(Nc1ccccc1)C(CCCCN1C(=O)c2ccccc2C1=O)N1C(=O)c2ccccc2C1=O (stereo unspecified)	3693	-15.2
O=C(c1ccccc1)N(c1ccccc1)c1nccc2ccccc12	3894	-13.4
O=[N+]([O-])c1cccc(COc2cccc(CN3CCCCC3)c2)c1	3550	-15.4
COc1ccc(/C=C/C=C2C(=O)NC(=S)NC2=O)cc1	3923	-9.1
COc1ccc(NC(=O)CN(C)C(=O)CSC(c2ccccc2)c2ccccc2)cc1	3866	4.8
Cc1ccc(S(=O)(=O)N2CCN(C(=O)CN3C(=O)NC(C)(c4ccc(Cl)cc4)C3=O)CC2)c(C)c1 (stereo unspecified)	3902	-8.0
CCN(CC(=O)Nc1ccc(NC(C)=O)cc1)C(=O)c1oc2c(ccc3ccccc32)c1C	2861	-12.1
O=c1oc2c(CN3CCOCC3)c(O)c(Cl)cc2c2c1CCC2	2598	-16.0
CN(C)c1ccc(NC(=O)CSc2n[nH]c(-c3ccncc3)n2)cc1	2884	-9.6

# Next structures follow.
Compound	Bead autofluor	PrP UTR inh
COc1cccc(C(C#N)NCCCNC(C#N)c2cccc(OC)c2OC)c1OC (stereo unspecified)	3964	-106.5
O=C(Nc1ccc(N2CCOCC2)cc1)c1cccc(S(=O)(=O)N2CCOCC2)c1	2535	-15.3
C#CCOCCOCCOCCNc1nc(N2CCOCC2)nc(N2CCN(C(=O)CCCCCCCCCCNC(=O)[C@@H]([C@H](C)CC)n3cc(CCCCCN)nn3)CC2)n1	3905	-9.0
CSc1ccc(/C=C/C(=O)OCC(=O)N2CCN(c3ccccc3)CC2)cc1	4147	-3.6
COC(=O)C1=C(c2ccc(Cl)c(C(F)(F)F)c2)C[C@@H]2CC[C@H]1N2C(=O)NCc1ccco1	2936	-11.2
O=C(O)C1CC2CCC1CC2 (stereo unspecified)	3563	-25.6
Cc1ccc(C2=CC(=O)C[C@H](c3ccc(F)cc3)C2)cc1	2966	-18.7
C/C(=N\NC(=O)c1cccc(N/N=C(\C)c2ccccc2)c1)c1ccccc1	2376	-53.3
Nc1ncnc2c1ncn2[C@@H]1O[C@H](COP(=O)(O)CP(=O)(O)O)[C@@H](O)[C@H]1O	5365	-16.2
C=C[C@@H]1c2cccc(C)c2N(S(=O)(=O)c2ccc(C)cc2)[C@H](c2ccccc2)C1(C#N)S(=O)(=O)c1ccccc1 (stereo partly specified)	3304	0.2

# Going on with the list.
Compound	Bead autofluor	PrP UTR inh
CCCCn1c(N)c(N(CCOC)C(=O)c2ccc3c(c2)C(=O)N(c2ccccc2Cl)C3=O)c(=O)[nH]c1=O	2975	-9.7
CCCCCCCC/C=C\CCCCCCCC(=O)NCCO	4415	-6.9
CC1=C(C)N(C)[C@H](c2ccccc2Br)[C@H](O)C1=O	3618	-21.9
Cc1ccc2c(C)c(C(=O)Nc3cccnc3)oc2c1C	3880	-23.7
COP(=S)(OC)Oc1ccc(Sc2ccc(OP(=S)(OC)OC)cc2)cc1	6278	-21.9
COc1ccc(-c2ccc3c(c2)[C@@H]2C[C@H](N(C)S(=O)(=O)c4ccccc4)[C@H]([C@H](C)O)C(=O)N2CC3)cc1	3070	-8.8
C[C@H]1CN([C@@H](C)CO)C(=O)c2cc(NC(=O)c3ccncc3)ccc2O[C@H]1CN(C)Cc1ccc(C(=O)O)cc1	4314	-21.4
O=C(NC(CSC(=O)c1ccccc1)C(=O)O)OCc1ccccc1 (stereo unspecified)	4091	-14.5
CC(C)C[C@H]1CN=C(N(C)C)N1CC(C)C	3039	-6.6
O=C1C=C(c2cccc(Cl)c2O)C[C@@H](c2ccc(Cl)cc2)C1	2829	-17.4

# Remaining list, next part
Compound	Bead autofluor	PrP UTR inh
C=C(C)[C@@H]1CC=C(CO)CC1	4334	-20.6
COC(=O)C1=C(c2ccc(-c3ccccc3)c(F)c2)C[C@@H]2CC[C@H]1N2C(=O)N1CCOCC1	3718	-9.6
Cn1c(=O)c2[nH]c(SCCN)nc2n(C)c1=S	4168	-13.9
C[C@@H](NC(=O)c1nc[nH]c1C(=O)N[C@H](C)c1ccccc1)c1ccccc1	3839	-17.2
C=CCn1cnc2c(c1=O)c1nc3ccccc3nc1n2/N=C/c1ccccn1	20073*	-21.6
O=C1NC[C@H](Cc2ccccc2)N(CC2CCN(CC3CCCC3)CC2)C1=O	3565	-12.2
CC(C)(C)[C@H]1COC(=O)CC/C=C\C[C@@H](CC(=O)N(CCO)Cc2ccccc2)C(=O)N1	3948	-14.2
C1CCN2C[C@@H]3C[C@@H](CN4CCCC[C@@H]34)[C@H]2C1	5433	-16.8
COc1ccc2cc(CNCCOCCOCCNCc3ccc4cc(OC)ccc4c3)ccc2c1	3824	-0.3
CS(=O)(=O)N1CCCC(C(=O)Nc2ccc(F)c(F)c2)C1 (stereo unspecified)	3543	-27.0

# Following part
Compound	Bead autofluor	PrP UTR inh
O=C(N/N=C/c1ccc([N+](=O)[O-])o1)c1cc2c(ccc3ccccc32)o1	4183	-22.4
CCOC(=O)[C@H]1[C@H]2COc3ccc(Br)cc3[C@@H]2N2C(=O)CN(Cc3ccc(Cl)cc3)C(=O)[C@@]12C	3720	8.6
C=CCCC1(C2=CCCCC2)C(=O)NC(=O)NC1=O	3777	-14.4
O=C(NCCCn1ccnc1)C(=O)NC1CCCCC1	4552	-9.9
C[C@H](CO)N1C[C@H](C)[C@@H](CN(C)C(=O)NC2CCCCC2)Oc2ccc(NS(C)(=O)=O)cc2C1=O	3027	3.5
CCCCCCCCCCCCCC(=O)NO	2917	-2.7
Cc1cccc(C)c1-c1ccc(CN2C(CC(C)C)C(=O)N(Cc3cn(CCO)nn3)CCS2(=O)=O)cc1 (stereo unspecified)	3837	-18.2
O=c1n(CC2CO2)c(=O)n(CC2CO2)c(=O)n1CC1CO1 (stereo unspecified)	3306	24.7
